S aureus helic: S. aureus DNA helicase inhibition; 0.05% of 120,000 active; AID 485395; purified S. aureus helicase, fluorescence unwinding assay; about half of the hits fall short of the stated cut; inhibition, %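 (tested at about 80 µM)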;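 active means both duplicates at 50% or more, or one of them with a favoured structure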;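 further: 0% = mean of negative control wells and 100% = mean of positive control wells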
MgrA-DNA mod: S. aureus MgrA-DNA binding modulation; fluorescence polarization; inhibition, %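 (about 10 µg/mL by stock and volumes)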; 0.13% of 84,000 active;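 active means above 50% in either of two replicates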;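 further: 0% = protein plus DNA without compound and 100% = DNA alone without protein; higher means less MgrA bound to DNA so lower polarization; one replicate is shown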
Starred values were filed as active, the others as inactive; x = not tested or not shown; & = joins results of further samples. Only part of the results is shown, so the mix of outcomes need not match the whole.

SMILES	S aureus helic	MgrA-DNA mod
C=CCNC(=O)C1CC(=O)N(c2ccc(OCC(=O)N3CCCC3)cc2)C1 (stereo unspecified)	1.0	-3.5
NC(=O)N/N=C1/C=C(c2ccccc2)C(O)(c2ccccc2)C1 (stereo unspecified)	-2.0	x
Cc1ccccc1NC(=O)Cn1nnc2ccccc21	12.0	x
COC(=O)c1ccc(CSc2ccc3nnc(-c4ccccc4)n3n2)o1	11.0	x
CC(=O)c1sc(C(C)(C)C)cc1N	x	-1.2
CCOc1ccc(NC(=O)CC2C(=O)NCCN2C(=O)c2ccccc2)cc1 (stereo unspecified)	-20.0	x
CCOC(=O)N1CCC(NC(=O)Cn2ncc3c(=O)oc4ccccc4c32)CC1	12.0	x
Cc1nnc(SCCCn2c(N3CC(C)OC(C)C3)nc3c2c(=O)[nH]c(=O)n3C)s1 (stereo unspecified)	10.0	x
N#C/C(=C/c1ccc2c(c1)OCO2)c1ccc(Cl)cc1Cl	2.0	-2.4
Clc1snnc1CN1CCOCC1	x	-1.1
CS/C(N)=N/N=C/c1ccc(Cl)cc1	x	4.0
CCc1ccc(NC(=O)c2noc3ncnc(N4CCCC4)c23)cc1	17.0	x
COc1ccc(S(=O)(=O)n2nc(-n3c(C)ccc3C)c3c(F)cccc32)cc1OC	x	-1.6
NC(=O)COc1ccc2oc(-c3ccccc3)cc(=O)c2c1	23.0	1.7
Cc1ccc2nc(-c3ccc(N)cc3)sc2c1S(=O)(=O)O	x	-0.9
CN1CCN(Cn2c(=S)oc3ccccc32)CC1	-14.0	x
COC(=O)c1cccc(C(=O)Oc2ccc(F)cc2)n1	19.0	x
CC(C)S(=O)(=O)c1csc(C(=O)O)c1	8.0	x
CCc1ccccc1Nc1nc2ccccc2[nH]1	27.0	0.6
COC(=O)C(F)(Sc1c[nH]c2ccccc12)C(F)(F)F (stereo unspecified)	11.0	x

Brought forward from above: 2 compounds, then new ones.
SMILES	S aureus helic	MgrA-DNA mod
CCc1ccccc1Nc1nc2ccccc2[nH]1	27.0	0.6
COC(=O)C(F)(Sc1c[nH]c2ccccc12)C(F)(F)F (stereo unspecified)	11.0	x
O=C(O)c1c2c(nc3ccc(S(=O)(=O)N4CCC(C(=O)NC5CCCC5)CC4)cc13)CCCCC2	14.0	-4.3
OC(COc1ccc(Cl)cc1)CN1CCC(Cc2ccccc2)CC1 (stereo unspecified)	5.0	x
CN(CC(=O)O)c1ncc(-c2nnnn2-c2ccccc2)c(-c2ccccc2Cl)n1	x	-1.9
CC[C@@H]1/C=C(\C)C[C@H](C)C[C@H](OC)[C@H]2O[C@@](O)(C(=O)C(=O)N3CCCC[C@H]3C(=O)O[C@H](/C(C)=C/[C@@H]3CC[C@@H](O)[C@H](OC)C3)[C@H](C)[C@@H](O)CC1=O)[C@H](C)C[C@@H]2OC	x	1.8
O=C(c1ccc2c(c1)C(=O)N(CC1CCCO1)C2=O)c1ccc2c(c1)C(=O)N(CC1CCCO1)C2=O (stereo unspecified)	10.0	x
CCOC(=O)Oc1ccc2oc(=O)cc(C)c2c1	-4.0	x
OC1CCCN(Cn2nc(-c3ccccc3)n(-c3ccc(F)cc3F)c2=S)C1 (stereo unspecified)	-3.0	x
FC(F)(F)c1ccccc1/C=N\N1CCN(c2ccccc2)CC1	10.0	x
CCN(CC)C(=O)Nc1cccc(Cl)c1	x	0.2
CCc1cc(CC)c(CO)c(CC)c1CO	0.0	4.4
COc1ccc(-c2nc(CS(=O)(=O)c3ccc(F)cc3)no2)cc1OC	x	-2.6
COc1ccccc1NC(=O)Cc1noc(COC(=O)c2ccc(SC)cc2OC)n1	4.0	x
CCOC(=O)N1CCC(NC(=O)c2cc3c(=O)oc4ccccc4c3s2)CC1	18.0	x
COc1cc2c(cc1OC)C(CC(=O)O)c1cc(OC)c(OC)cc1C(=O)C2 (stereo unspecified)	-10.0	x
CCN(C(=O)COc1ccccc1C#N)C12CC3CC(CC(C3)C1)C2	-7.0	x
O=C1C2C3C=CC(CC3)C2C(=O)N1c1ccc(Br)cc1[N+](=O)[O-] (stereo unspecified)	x	-1.1
CCOc1ccc(CCNC(=O)c2cc3oc4ccccc4c3n2CC)cc1OCC	-31.0	x
CC(C)(C)OC(=O)N1CCc2c(sc(N)c2C#N)C1	9.0	x
O=C(COCC(=O)c1ccccc1)Sc1nc2ccccc2o1	-1.0	-0.3
CN(C)/C=N/n1cnnc1	-7.0	x
Cc1cc(O)c(C(=O)/C=C/N(C)C)c(=O)o1	x	-0.7
COC(=O)C1=C(C)NC(C)=C(C#N)C1c1cccs1 (stereo unspecified)	6.0	x
O=C(O)Cc1cc(=O)n(C2CCS(=O)(=O)C2)[nH]1 (stereo unspecified)	-1.0	x
CCOC(=O)c1c(N)nc(SC)n1Cc1ccco1	x	3.4
O=C1c2ccccc2C2(O)NC(=S)NC12O (stereo unspecified)	-10.0	x
O=C(NC12CCC(O)C(SC1)/C2=N/O)c1ccccc1 (stereo unspecified)	0.0	1.5
O=C(Nc1ccc(Br)cc1F)C1CSC(c2ccncc2)=N1 (stereo unspecified)	11.0	x
Cc1cc(Br)ccc1S(=O)(=O)Nc1ccnn1C	x	-0.5
CN(Cc1ccccc1)S(=O)(=O)c1ccc(C(=O)Nc2ccc(-c3nc4ccccc4[nH]3)cc2)cc1	6.0	-2.1
COc1cc(OC)c(OC)cc1CNCc1cccnc1	4.0	-8.6
CSc1c(C#N)c(-c2ccccc2)nn1C	x	3.8
CCCn1c(N)c(C(=O)CN2c3ccccc3CC2C)c(=O)n(C)c1=O (stereo unspecified)	5.0	x
CN1C(=O)CN(C2CCCCC2)C1=O	11.0	0.4
CC(=O)Nc1ccc(-c2cc(C(=O)O)nc3n[nH]c(-c4ccccc4)c23)cc1	9.0	-1.8
COCCNC(=O)C12CC3CC(C1)CC(C(=O)NCCOC)(C3)C2	15.0	x
CC1CCN(C=C(S(=O)(=O)c2ccccc2)S(=O)(=O)c2ccccc2)CC1	2.0	1.8
COC(=O)c1cnc(NCCCN2CCOCC2)c2ccccc12	10.0	x
OC(CNCc1ccccc1)Cn1c2ccc(Cl)cc2c2cc(Cl)ccc21 (stereo unspecified)	-2.0	2.1
Cc1cc(C(=O)COC(=O)/C=C/c2ccco2)c(C)n1-c1ccc(F)cc1	4.0	x
COc1ccc(OC)c(C2=NOC(C(=O)N(C)C3CCCCC3)C2)c1 (stereo unspecified)	5.0	-1.3
CCCN(CCC)CC(O)CN1C(=O)N(CN2C(=O)N(CC(O)CN(CCC)CCC)C(=O)C2(C)C)C(C)(C)C1=O (stereo unspecified)	-28.0	x
CCC(=O)N1CCCc2cc(S(=O)(=O)CCC(=O)Nc3ccc(CC)cc3)ccc21	14.0	0.6
O=C(/C=C\c1ccccc1)Nc1ccc(-c2cn3cccnc3n2)cc1	-12.0	1.2
C=CCC(NCc1ccccc1)c1ccc(C)o1 (stereo unspecified)	x	-6.0
O=C1c2ccccc2C(=O)N1/N=C/c1ccc2c(c1)OCCO2	-6.0	x
O=C1CCC(=O)N1c1ccc(CSc2nnnn2C2CCCCC2)cc1	4.0	1.9
CC(=O)Nc1ccc(Br)cc1Cl	x	-0.2
CSc1nc(N)nc(N2CCCC2)n1	x	-2.3
O=C(C1CCC(CNS(=O)(=O)c2ccccc2)CC1)N1CCCC1 (stereo unspecified)	13.0	x
COc1cc(/C=C2\N=C(C)OC2=O)cc(OC)c1	x	-2.2

Following part
SMILES	S aureus helic	MgrA-DNA mod
O=C(c1ccc(Cl)cc1)N1CCCC(c2nc(-c3ccc(Cl)cc3)no2)C1 (stereo unspecified)	16.0	-3.7
COc1cccc(NC(=S)Nc2ccc(S(N)(=O)=O)cc2)c1	29.0	0.5
O=c1[nH]c2sc3c(c2c2ncnn12)CCCC3	3.0	x
CCOC(=O)c1cnc2ccccc2c1NCC(C)O (stereo unspecified)	12.0	-0.8
COc1ccc(-c2noc(-c3ccc(Cl)c(Cl)c3)n2)cc1	6.0	1.0
CSc1cccc(NC(=O)CSc2ccccn2)c1	x	-0.3
COc1cccc(-c2nc(=S)c3c(o2)CCCC3)c1	1.0	5.1
O=C(NCCSc1ccccc1)c1cncc(Br)c1	3.0	x
O=C(CCCN1C(=O)/C(=C/C=C/c2ccccc2)SC1=S)NC1=NCCS1	-54.0	x
Cc1ccc2nc(-c3ccc(N=Cc4c[nH]c5ccccc45)cc3)sc2c1	5.0	-1.1
CN(C(=O)CSc1ccc(C(F)(F)F)cn1)c1c2c(nn1C)CCCC2	x	-0.6
CCC1=C(C(=O)OC)C(/C=C/c2ccccc2)n2ncnc2N1 (stereo unspecified)	-2.0	x
Cc1nc(Cl)c(C#N)cc1-c1ccccc1	x	0.7
Cc1ccc(CNc2cccnc2)cc1	x	-1.9
O=c1ccnc2n1COCS2	-20.0	x
COc1ccc(C(CC(=O)NC2CCCC2)NS(=O)(=O)c2ccc(C)cc2)cc1 (stereo unspecified)	3.0	-1.9
CN(C)/C=C/c1onc(-c2c(F)cccc2Cl)c1C#N	x	-1.6
COc1cc(C(=O)NCCCc2nc3ccccc3[nH]2)cc(OC)c1OC	5.0	-0.9
O=C(CCCN1CC=C(n2c(=O)[nH]c3ccccc32)CC1)c1ccc(F)cc1	x	-0.8&5.7
CN1CCN(C(=O)CCc2nc(-c3ccccn3)no2)CC1	-17.0	x

Carrying on:
Fields: S aureus helic	MgrA-DNA mod
- Cc1ccc(SCc2cc(=O)[nH]c(N3CCCCC3)n2)cc1
  3.0	0.2
- Cc1cc(C)cc(-n2c(SCC(=O)NCC3CCCO3)nc3c(c2=O)SC(C)C3)c1 (stereo unspecified)
  0.0	x
- COc1cccc(-c2nc(CS(=O)(=O)CC(=O)Nc3ccccc3C)c(C)o2)c1
  15.0	1.5
- N=c1c[n+](-c2ccc(Cl)cc2)[n-]o1
  1.0	-0.2
- O=C(COC(=O)/C=C/c1ccccc1)Nc1c(F)cccc1F
  -15.0	0.6
- O=C(O)/C=C/c1ccc(Cn2ccnc2)cc1
  x	2.6
- CCC(C)Sc1nnc(NC(=O)c2cc(Cl)ccc2OC)s1 (stereo unspecified)
  12.0	x
- O=C(c1cccc(Cl)c1)N1CCCc2ccccc21
  -31.0	x
- COC(=O)C1=CO[C@@H](C)[C@@H]2CN3CCc4c([nH]c5ccccc45)C3C[C@H]12 (stereo partly specified)
  x	-0.1
- COC(=O)c1cc(OC(=O)c2nn(-c3ccccc3)nc2C)n(-c2ccccc2)n1
  x	0.1

Among those listed so far, 5 have a furan ring, fused or not:
Fields: S aureus helic	MgrA-DNA mod
- COC(=O)c1ccc(CSc2ccc3nnc(-c4ccccc4)n3n2)o1
  11.0	x
- CCOc1ccc(CCNC(=O)c2cc3oc4ccccc4c3n2CC)cc1OCC
  -31.0	x
- CCOC(=O)c1c(N)nc(SC)n1Cc1ccco1
  x	3.4
- Cc1cc(C(=O)COC(=O)/C=C/c2ccco2)c(C)n1-c1ccc(F)cc1
  4.0	x
- C=CCC(NCc1ccccc1)c1ccc(C)o1 (stereo unspecified)
  x	-6.0

Next part
Fields: S aureus helic	MgrA-DNA mod
- COc1cccc(CNC(C)C(=O)O)c1O (stereo unspecified)
  x	-0.5
- COc1ccc(Cl)cc1Nc1nc2cc(C)ccc2cc1C#N
  3.0	-0.9
- CCOC(=O)N1CCN(S(=O)(=O)c2ccc(C)cc2)C1C(C)C (stereo unspecified)
  7.0	x
- CC(C)(C)CC(=O)Nc1c(-c2cccs2)nc2ccccn12
  9.0	x
- O=C(O)c1ccccc1C(=O)c1ccccc1
  -10.0	x
- O=[N+]([O-])c1cc(F)ccc1-n1cccc1
  x	-1.7
- CC(C)(CC(=O)O)CC(=O)Nc1cccc(C(=O)O)c1
  x	-2.9
- COC(=O)C(Cc1ccc(F)cc1)(Cc1ccc(F)cc1)C(C)=O
  x	0.2
- CN1C(=O)C(O)(CC(=O)/C=C/c2ccco2)c2ccccc21 (stereo unspecified)
  25.0	x
- Cc1cccc(NCN2C(=O)S/C(=C/c3ccc(N(C)C)cc3)C2=O)c1
  13.0	1.9
- O=C(OCC(=O)N1CCCCC1)c1ccc(S(=O)(=O)N2CCCCC2)cc1
  16.0	x
- CCOc1ccc(Nc2cc(C(=O)NCc3ccc(F)cc3)c3ccccc3n2)cc1
  1.0	-2.2
- O=C(NCC1CCCO1)c1ccc(CSc2ncn[nH]2)cc1 (stereo unspecified)
  -10.0	x
- CCc1cccc2nc(SC(CC)C(=O)NN)n(-c3ccc(OC)cc3)c(=O)c12 (stereo unspecified)
  1.0	-0.8
- COCC(C)n1c(SCC(N)=O)nc2ccccc2c1=O (stereo unspecified)
  -51.0	x
- CCCOc1ccc(-c2nc(OCC)c3ccccc3n2)cc1
  7.0	1.2
- CCS(=O)(=O)Nc1ccc(Br)cn1
  2.0	1.5
- C/C(=N\N(C)c1ccccc1)C1=C(O)CC(C)(C)CC1=O
  -2.0	-1.2
- COCCn1c(-c2ccccc2)cnc1N
  17.0	3.9
- N#Cc1c(Nc2ccc(Cl)cc2)s[nH]c1=O
  x	6.8
- O=C(/C=C/N1CCOCC1)c1cccs1
  8.0	-0.3
- Cc1nnc(NC(=O)CN2C(=O)c3cccnc3Sc3ccccc32)s1
  -13.0	x
- COc1cc2ncnc(NNC(=O)c3ccco3)c2cc1OC
  20.0	x
- c1nc(NCCc2ccc3c(c2)OCCO3)c2ccsc2n1
  -15.0	x
- CC(C)OC(=O)C(Cc1ccccc1)N1COc2ccc3c4c(c(=O)oc3c2C1)CCC4 (stereo unspecified)
  27.0	0.0
- Cc1ncoc1C(=O)Nc1ccccc1C(F)(F)F
  17.0	1.2
- CCn1nc(C)c(Br)c1-c1nc(-c2cccc(C)c2)no1
  -12.0	x
- COc1cc(/C=C2/C(=O)N(c3ccc(Br)cc3)N=C2C)cc(OC)c1OC
  x	-2.4
- O=C(NCc1cccnc1)NC1(c2ccccc2)CC1
  2.0	-1.5

Source: PubChem
